Source: PubChem
OX1R antagonist: blocks the human orexin 1 receptor; CHO/OX1R cells, Fluo-8 calcium fluorescence, orexin A; AID 434989; hit rate 0.43% among 330,000; O43613; inhibition, % at 5 µM;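 active = inhibition above its plate's threshold, mean inhibition of all tested compounds on the plate plus 3 SD, cut at about 37% in these data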;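 also: 0% = orexin A challenge wells and 100% = SB-334867-A antagonist wells; not every result past the cut was called active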
Target sequence (O43613 whole entry, looked up): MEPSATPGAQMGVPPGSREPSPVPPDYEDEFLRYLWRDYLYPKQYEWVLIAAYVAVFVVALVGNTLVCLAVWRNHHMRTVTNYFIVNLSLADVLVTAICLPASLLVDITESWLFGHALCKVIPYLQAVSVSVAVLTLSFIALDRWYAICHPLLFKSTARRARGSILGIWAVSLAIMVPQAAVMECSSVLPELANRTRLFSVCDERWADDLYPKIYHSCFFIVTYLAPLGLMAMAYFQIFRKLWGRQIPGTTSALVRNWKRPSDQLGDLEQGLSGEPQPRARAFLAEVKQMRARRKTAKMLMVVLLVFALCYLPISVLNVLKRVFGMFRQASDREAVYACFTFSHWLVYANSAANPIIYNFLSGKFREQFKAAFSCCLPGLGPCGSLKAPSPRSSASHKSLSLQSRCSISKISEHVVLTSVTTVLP
* = called active by the depositor. Only part of the results is shown, and most or all hits are left out here.

What do the screens show for `CC(C)Sc1nnc([C@H](C)NC(=O)OC(C)(C)C)o1`?
OX1R antagonist: 4

Results for COc1ccc(OCCCC(=O)Nc2cc(Cl)ccc2-n2cncn2)cc1 ?
OX1R antagonist: -17

Results for C/C(=N\NC(=O)c1nnn(-c2nonc2N)c1CN(C)C)c1ccco1 ?
OX1R antagonist: 1

What do the screens show for `CCN(C(=O)CSc1nc2ccccc2n1CC)C1CCS(=O)(=O)C1` (centres undefined)?
OX1R antagonist: -18

How did Cc1[nH]nc2c1C(c1ccc(Cl)cc1)C(C#N)=C(N)O2 (centres undefined) do in these assays?
OX1R antagonist: -17

Results for CCCCCCc1c(O)nc(SCCN2CCOCC2)[nH]c1=O ?
OX1R antagonist: -18

What do the screens show for `COc1ccc(-c2nnn(CC(=O)N(Cc3ccc(F)cc3)C(C(=O)NC3CCCC3)c3ccc(F)cc3)n2)cc1` (centres undefined)?
OX1R antagonist: -23

Results for C/C(=N\NC(=O)c1ccncc1)c1cc2ccccc2o1 ?
OX1R antagonist: 1

What do the screens show for `CC(C)(C)Sc1ccc([N+](=O)[O-])cc1C(=O)Nc1ccncc1`?
OX1R antagonist: -16

What do the screens show for `Oc1cccc(/C=N/Nc2cc(N3CCOCC3)nc(N3CCOCC3)n2)c1`?
OX1R antagonist: -13

What do the screens show for `COCCNC(=O)c1cn(C)c2ccc(S(=O)(=O)N3CCCC3)cc2c1=O`?
OX1R antagonist: 8

What do the screens show for `Cc1ccc(-n2c(C)cc(C(=O)CSc3n[nH]c(N)n3)c2C)cc1`?
OX1R antagonist: -18

How did CCOc1ccc(C(=O)NCC(=O)OCc2c(F)cccc2Cl)cc1OCC do in these assays?
OX1R antagonist: -13

What do the screens show for `CCn1c(SCC(=O)OCc2ccccc2)nnc1-c1ccco1`?
OX1R antagonist: -20

Results for CCOC(=O)c1c(N)sc(C(O)(C(F)(F)F)C(F)(F)F)c1-c1ccc(Cl)cc1 ?
OX1R antagonist: 0

Results for CCN(CC)CCCN=Cc1c(O)n(Cc2ccccc2)c(=O)c2ccccc12 ?
OX1R antagonist: -35

How did C=CCn1c(-c2ccccc2)nc(=S)c2c1CCCC2 do in these assays?
OX1R antagonist: -2

What do the screens show for `Cc1nc2cc(NC(=O)CS(=O)(=O)c3ccccc3)ccc2s1`?
OX1R antagonist: -10

What do the screens show for `Cc1ccc(/C=N/NC(=O)Cn2ccc(C(F)(F)F)n2)o1`?
OX1R antagonist: 1

What do the screens show for `CN(Cc1nc2c(s1)CCCC2)C(=O)CCc1nnc(-c2ccccc2)o1`?
OX1R antagonist: -14

How did O=C(CSc1nnnn1C1CCCCC1)Nc1ccccc1F do in these assays?
OX1R antagonist: -28

What do the screens show for `CCOC(=O)C(NC(C)=O)C(=O)Nc1ccc(C(C)C)cc1` (centres undefined)?
OX1R antagonist: -6

How did COc1ccccc1C(=O)NC(=S)N1CCCc2ccccc21 do in these assays?
OX1R antagonist: -8

What do the screens show for `COc1ccc(NC(=O)C2c3cc(OC)c(OC)cc3C(=O)N(C)C2c2cccnc2)cc1OC` (centres undefined)?
OX1R antagonist: -19

How did Cc1ccc(C2CC(c3cccc(C)c3)n3ncnc3N2)cc1 (centres undefined) do in these assays?
OX1R antagonist: -11

Results for CCN1CCc2c(sc3c2c(NCc2ccco2)nc2nnnn23)C1 ?
OX1R antagonist: -29

How did CC1CC(C)CN(C(=O)CCC(=O)Nc2nnc(C3CCCCC3)s2)C1 (centres undefined) do in these assays?
OX1R antagonist: -27

How did Cc1occc1-c1nnc(SCC(=O)c2ccccc2)n1CC1CCCO1 (centres undefined) do in these assays?
OX1R antagonist: -32

How did COc1ccc(C(=O)N[C@H](C(=O)N2CCN(c3ccccc3F)CC2)C(C)C)cc1 do in these assays?
OX1R antagonist: -8

What do the screens show for `Nc1nc(-c2ccccc2)c(C(=O)Nc2ccccc2)s1`?
OX1R antagonist: -13

Molecules shown so far that contain a CF3 group (two):
Results for CCOC(=O)c1c(N)sc(C(O)(C(F)(F)F)C(F)(F)F)c1-c1ccc(Cl)cc1 ?
OX1R antagonist: 0

What do the screens show for `Cc1ccc(/C=N/NC(=O)Cn2ccc(C(F)(F)F)n2)o1`?
OX1R antagonist: 1

(next part)
What do the screens show for `O=C(Nc1cccc(C(F)(F)F)c1)c1cccnn1`?
OX1R antagonist: 3

How did O=C1CSC(c2cn(-c3ccccc3)nc2-c2ccc3c(c2)OCCO3)N1CCN1CCOCC1 (centres undefined) do in these assays?
OX1R antagonist: -30

Results for Cn1ncc(C#N)c1NC(=O)c1cc(-c2ccccc2Cl)on1 ?
OX1R antagonist: -10

Results for CCc1nnc(NC(=O)CCC2CCCCC2)s1 ?
OX1R antagonist: -9

Results for CCc1ccc(C(=O)c2cncc(Br)c2)cc1 ?
OX1R antagonist: -15

What do the screens show for `COCCCNC(=S)N1CCC(C(=O)c2ccc3c(c2)OCCO3)CC1`?
OX1R antagonist: -6

Results for COC(=O)c1sccc1S(=O)(=O)NCc1ccc(S(N)(=O)=O)cc1 ?
OX1R antagonist: 12

Results for O=C(COc1ccc([N+](=O)[O-])cc1)NCC(c1cccs1)N1CCOCC1 (centres undefined) ?
OX1R antagonist: -11

What do the screens show for `CCOc1ccccc1C(=O)NC1CCN(CC(=O)Nc2cc(OC)ccc2OC)CC1`?
OX1R antagonist: -17

How did COc1ccc(OC)c(NC(=O)CS(=O)(=O)c2cn(CC(=O)N3CCOCC3)c3ccccc23)c1 do in these assays?
OX1R antagonist: -10

Quoted at random: five entries already listed.
Results for COC(=O)c1sccc1S(=O)(=O)NCc1ccc(S(N)(=O)=O)cc1 ?
OX1R antagonist: 12

Results for O=C(COc1ccc([N+](=O)[O-])cc1)NCC(c1cccs1)N1CCOCC1 (centres undefined) ?
OX1R antagonist: -11

What do the screens show for `CCOc1ccccc1C(=O)NC1CCN(CC(=O)Nc2cc(OC)ccc2OC)CC1`?
OX1R antagonist: -17

Results for CCc1ccc(C(=O)c2cncc(Br)c2)cc1 ?
OX1R antagonist: -15

Results for Cn1ncc(C#N)c1NC(=O)c1cc(-c2ccccc2Cl)on1 ?
OX1R antagonist: -10

Additional structures.
How did Cc1cccc(OCC(=O)OC(C)CN2CCCCC2)c1 (centres undefined) do in these assays?
OX1R antagonist: 5

What do the screens show for `CCN(Cc1cc(=O)[nH]c2ccccc12)C(=O)C(C)C`?
OX1R antagonist: 5

What do the screens show for `Cc1ccccc1Nc1ncc(C#N)c(N)n1`?
OX1R antagonist: -5

What do the screens show for `C/C(=C\C(=O)C(F)(F)F)Nc1ccc(C)cc1`?
OX1R antagonist: -11

What do the screens show for `CCOC(=O)C1(C)NC(c2ccc(OC)c(OC)c2)C2C(=O)N(CC)C(=O)C21` (centres undefined)?
OX1R antagonist: -6

What do the screens show for `CC(=O)Oc1ccccc1C(=O)O`?
OX1R antagonist: -11

What do the screens show for `COC(=O)c1ccc(C)c(NC(=O)Cc2coc3cc(OC)ccc23)c1`?
OX1R antagonist: 4

How did CS(=O)(=O)c1ccc(-c2nnn(CC(=O)N3CCCCC3)n2)cc1 do in these assays?
OX1R antagonist: 7

How did C=CCSC1=C(C#N)C(c2ccccc2)CC(=O)N1 (centres undefined) do in these assays?
OX1R antagonist: -14

Results for CCc1ccc(CNn2cnnc2SCC(=O)NC(C)(C)C)cc1 ?
OX1R antagonist: -22

Ordered by heavy-atom count (lowest first): some entries from above
How did Cc1cccc(OCC(=O)OC(C)CN2CCCCC2)c1 (centres undefined) do in these assays?
OX1R antagonist: 5

How did CS(=O)(=O)c1ccc(-c2nnn(CC(=O)N3CCCCC3)n2)cc1 do in these assays?
OX1R antagonist: 7

What do the screens show for `COC(=O)c1ccc(C)c(NC(=O)Cc2coc3cc(OC)ccc23)c1`?
OX1R antagonist: 4

What do the screens show for `CCOC(=O)C1(C)NC(c2ccc(OC)c(OC)c2)C2C(=O)N(CC)C(=O)C21` (centres undefined)?
OX1R antagonist: -6

Next results.
What do the screens show for `COCC(C)N=C1NN=C(c2cc(C)n(Cc3ccccc3Cl)c2C)CS1` (centres undefined)?
OX1R antagonist: -21

How did COc1ccccc1CNC(=O)CCS(=O)(=O)Cc1ccc(C)cc1 do in these assays?
OX1R antagonist: -20

How did COc1ccc(C(=O)Nc2nc(C)c(C(=O)N(C)C)s2)cc1OC do in these assays?
OX1R antagonist: -3

What do the screens show for `CCCCOc1ccc(C2(C)CC(=O)NC2=O)cc1` (centres undefined)?
OX1R antagonist: -8

What do the screens show for `CCS(=O)(=O)c1ccc(O)c(N2C(=O)C3C4C=CC(C4)C3C2=O)c1` (centres undefined)?
OX1R antagonist: -26

What do the screens show for `C=CCOc1c(CNc2ccc(S(N)(=O)=O)cc2)cccc1OC`?
OX1R antagonist: -10

What do the screens show for `COc1ccc(C(=O)N2CCC(C(=O)NC3CC3)CC2)cc1`?
OX1R antagonist: -3

Results for CCC(C)Sc1nc2c([nH]c3ccccc32)c(=O)n1C (centres undefined) ?
OX1R antagonist: -18

How did O=C1CC(NCC2CCCO2)C(=O)N1c1ccc(F)cc1 (centres undefined) do in these assays?
OX1R antagonist: -5

How did O=C(CCCC(=O)NCCc1ccccc1)NCCc1ccccc1 do in these assays?
OX1R antagonist: -15

How did COc1ccc2c(c1)C1=C(CC2)C(c2ccc(C)cc2)NC(=S)N1 (centres undefined) do in these assays?
OX1R antagonist: -32

What do the screens show for `O=C(c1ccc(Br)s1)N1CCN(S(=O)(=O)c2ccccc2)CC1`?
OX1R antagonist: -24

What do the screens show for `CS(=O)(=O)N(CC(=O)N1CCN(c2ccccc2)CC1)c1ccc(Cl)c(C(F)(F)F)c1`?
OX1R antagonist: -8

How did Cc1cccc(OCCn2c(=O)n(C)c3ccccc32)c1 do in these assays?
OX1R antagonist: -11

How did O=C(c1ccccc1)c1ccc2c(c1)OCCOCCOCCOCCO2 do in these assays?
OX1R antagonist: -17

What do the screens show for `Cc1ccc(S(=O)(=O)NC(C)(C)CN2CCNCC2)cc1`?
OX1R antagonist: -19

How did Cc1ccc(NC(=O)OCCN2CCN(Cc3ccccc3)CCC2=O)cc1C do in these assays?
OX1R antagonist: -11

Results for COc1ccc(CC(=O)N/N=C/c2ccc(C)s2)cc1 ?
OX1R antagonist: -32

What do the screens show for `Cc1ccc(-n2nc3c(=O)n(CC(=O)NCc4ccccn4)nc(C)c3c2C)cc1`?
OX1R antagonist: -19

Results for c1ccc(NC2=NCCN2CCC2CCCC2)cc1 ?
OX1R antagonist: -14

What do the screens show for `Cc1ccc(NC(=O)CCN2CC(C)OC(C)C2)cc1` (centres undefined)?
OX1R antagonist: -12

What do the screens show for `CS(=O)(=O)c1ccc2nc(NC(=O)c3cc(-c4ccccc4)nn3-c3ccccc3)sc2c1`?
OX1R antagonist: -22

Results for CCC(Sc1nc(N)cc(=O)[nH]1)C(=O)NC(C(=O)OC)c1ccccc1 (centres undefined) ?
OX1R antagonist: 8

Results for CCOc1ccc(-n2c(=O)c3sccc3n(Cc3ccc(C)cc3)c2=O)cc1 ?
OX1R antagonist: -35

How did COC(=O)c1cc(-c2cccs2)nn1-c1ccccc1 do in these assays?
OX1R antagonist: -27

What do the screens show for `O=C(NC1=NCCS1)C1CC2CCC1C2` (centres undefined)?
OX1R antagonist: -17

Results for Cc1ccc(S(=O)(=O)N2CCCCC2)cc1NC(=O)COC(=O)c1c(F)cccc1F ?
OX1R antagonist: -30

Results for N#Cc1nc(COc2cccc(Cl)c2)oc1N1CCCC1 ?
OX1R antagonist: -21

How did CCOP(=O)(OCC)C(Nc1ccc([N+](=O)[O-])cc1)c1ccc(Cl)cc1 (centres undefined) do in these assays?
OX1R antagonist: -21

What do the screens show for `CC(=O)Nc1nnc(SCC(=O)NC2CC2)s1`?
OX1R antagonist: 10

What do the screens show for `CCN(C(=O)CSc1cc(C)c2ccccc2n1)C1CCS(=O)(=O)C1` (centres undefined)?
OX1R antagonist: -18

What do the screens show for `O=C(c1ccc([N+](=O)[O-])cc1)c1cc2ccc(O)cc2oc1=O`?
OX1R antagonist: -11

Results for ONC(=Nc1ccccc1Cl)c1c(F)cccc1F ?
OX1R antagonist: -21

What do the screens show for `O=S(=O)(c1cc(F)cc(F)c1)N1CCN(c2ncccn2)CC1`?
OX1R antagonist: -9

How did CCOC(=O)Nc1cc(C)ccc1OC do in these assays?
OX1R antagonist: -33

What do the screens show for `Cc1c(OCC(=O)N2CCC(C(=O)O)CC2)ccc2c3c(c(=O)oc12)CCC3`?
OX1R antagonist: -5

How did Cc1cc(=O)[nH]c(SCC(=O)Nc2cccc3ccccc23)c1C#N do in these assays?
OX1R antagonist: -9

What do the screens show for `COc1ccc(-c2csc(NC(=O)CSc3ccc(Br)cc3)n2)c(OC)c1`?
OX1R antagonist: -8

Results for Cc1ccc(C(=O)NCC(=O)Nc2cc(C)ccn2)cc1 ?
OX1R antagonist: -24

Results for COc1cc(NC(=O)C2CCN(S(=O)(=O)c3cnc[nH]3)CC2)cc(OC)c1OC ?
OX1R antagonist: -8

What do the screens show for `CCOC(=O)c1cnc2c(C)c(Cl)ccc2c1Nc1ccc(S(=O)(=O)Nc2ncccn2)cc1`?
OX1R antagonist: -7

Results for CCC(=O)N1CCc2cc(S(=O)(=O)N3CCN(c4ccccc4)CC3)ccc21 ?
OX1R antagonist: -2

How did CC1CN(c2ccc([N+](=O)[O-])cn2)CC(C)O1 (centres undefined) do in these assays?
OX1R antagonist: -1

What do the screens show for `COCCn1c(SCC(=O)Nc2nnc(C)s2)nnc1-c1ccco1`?
OX1R antagonist: -13

What do the screens show for `OC(COCc1ccccc1F)CN1CCCCC1` (centres undefined)?
OX1R antagonist: -22

What do the screens show for `Nn1c(=O)[nH]c2c([nH]c3ccccc32)c1=O`?
OX1R antagonist: -16

Results for O=C(Nc1ccon1)c1cccc(S(=O)(=O)N2CCCCCC2)c1 ?
OX1R antagonist: -16

How did O=C1OCC2=C1C(c1ccc(F)cc1)CC(=O)N2c1ccccc1 (centres undefined) do in these assays?
OX1R antagonist: -27

What do the screens show for `COc1ccc(C(CCN(Cc2ccc(OC)c(OC)c2)C(C)=O)c2ccccc2)cc1` (centres undefined)?
OX1R antagonist: -26

Results for CCCNc1nc(C)c(C(C)=O)cc1C#N ?
OX1R antagonist: -13

How did O=C(NC1CCCCCCC1)c1ccc2c(c1)N(Cc1ccc(F)cc1)C(=O)CS2=O (centres undefined) do in these assays?
OX1R antagonist: -21

Results for COc1ccc(N2C(=O)CC3(CCCC3)CC2=O)cc1 ?
OX1R antagonist: -17

What do the screens show for `CC(=O)NCCc1nc2ccccc2n1Cc1cccc(C)c1`?
OX1R antagonist: -12
